Screening results: PubChem, ICCB-Longwood Screening Facility, Harvard Medical School
BasE inh: inhibitors of Acinetobacter baumannii siderophore enzyme BasE; purified BasE, fluorescence polarization binding displacement; inhibition, % (no concentration beside the values); hit rate 0.1% among 84,000; AID 485350;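 active = both replicates above 25% with normal brightness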;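 note: 0% = negative plate control signal and 100% = positive plate control signal; stock transfer was 100 nL into about 30 µL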
LANA-nucl inh: inhibitors of KSHV LANA binding to nucleosomes; FITC-LANA1-23 / chicken nucleosome fluorescence polarization; hits give low values; z-score (concentration not given with the values); hit rate 0.3% among 51,000; AID 720717;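 active = both repeat wells score below -2 in polarization z-score versus plate sample wells, excluding overly bright wells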;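 note: 100 nL library stock added to about 30 µL; numbers are from one replicate; some results filed as inactive read as strong as hits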
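Test system: purified chicken nucleosomes with FITC-labelled LANA N-terminal peptide (1-23); Input: 240 nM purified chicken nucleosomes (480 nM peptide binding sites), final; Medium: TEN-BT buffer, pH 7.5; Timing: 10–45 min, room temperature; Technique: fluorescence polarization, 480 nm excitation, 535 nm parallel and perpendicular emission; Replication: duplicates.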
An asterisk follows results filed as active; & = joins results of further samples. These rows are one share of the data. The share of hits here may be higher or lower than overall.

`COc1ccc2c(c1)C1=NN(C(C)=O)C(c3ccc(N(C)C)cc3)C1CC2` (configuration not stated) gave BasE inh 0.8 and LANA-nucl inh -1.1.
OCN1C2=NCN(Cc3ccc(Cl)cc3)CN2c2ccccc21 was read as BasE inh -1.1.
For Ic1ccc(Nc2nc(NCCN3CCOCC3)nc(N3CCCC3)n2)cc1 the results were BasE inh -2.9 and LANA-nucl inh 0.09.
Screening CC[C@H]1OC(=O)[C@H](C)[C@@H](O[C@H]2C[C@@](C)(OC)[C@@H](O)[C@H](C)O2)[C@H](C)[C@@H](O[C@@H]2O[C@H](C)C[C@H](N(C)C)[C@H]2O)[C@](C)(O)C[C@@H](C)CN(C)[C@H](C)[C@@H](O)[C@]1(C)O returned BasE inh -2.6 and LANA-nucl inh 0.84&0.54.
Screening O=C(O)c1cc2c(cn1)[nH]c1ccccc12 returned BasE inh 7.0 and LANA-nucl inh 1.2.
For COC(=O)c1cc(COC(=O)c2ccc3c(c2)S(=O)(=O)c2ccccc2C3=O)oc1C the results were BasE inh -0.9.
Screening COCCNC(=O)c1ccccc1NC(=O)Nc1ccccc1 returned BasE inh 1.4 and LANA-nucl inh 0.43.
C=C(C)CN=c1scc(-c2cccs2)n1/N=C/c1ccc(O)c(O)c1 was read as BasE inh 1.1.
`CN1C2=C(C(=O)CCC2)C(c2cccc3ccccc23)C2=C1CCCC2=O` gave BasE inh 5.0 and LANA-nucl inh -0.26.
Screening O=C(Cc1nc2ccccc2[nH]1)C(F)(F)F returned BasE inh -0.7 and LANA-nucl inh 0.064.
Screening COC(=O)c1c(C(F)(F)F)nc(C(F)F)c(C(=O)O)c1CC(C)C returned BasE inh -1.9 and LANA-nucl inh -0.32.
For COc1cccc(-c2csc(N3CCN(C(=S)NCc4ccco4)CC3)n2)c1 the results were BasE inh -2.1 and LANA-nucl inh 0.5.
`CC(O)c1nc2ccccc2n1Cc1ccccc1` (configuration not stated) gave BasE inh 0.0 and LANA-nucl inh 0.069.
Nc1cc(-c2nc3ccccc3o2)ccc1Cl was read as BasE inh -2.1 and LANA-nucl inh -0.18.
For O=C(CSc1nnc(-c2ccco2)o1)NC(c1ccccc1)c1ccccc1 the results were BasE inh 0.8 and LANA-nucl inh 1.
Screening Cc1ccccc1/[N+]([O-])=C/c1cccs1 returned BasE inh 1.4.
COc1ccccc1NC1=NC(CO)(CO)CS1 was read as BasE inh -1.4.
Screening Cc1ccc(N(Cc2ccco2)C(=O)c2cc3ccccc3oc2=O)cc1 returned BasE inh -2.0 and LANA-nucl inh -0.3.
`CC(=O)Nc1ccc(S(=O)(=O)NCC2CCN(CC3CCCCC3)CC2)cc1` gave BasE inh -1.1 and LANA-nucl inh -0.67.
Cc1ccc(N2C(=O)N(CC(N)=O)c3ccccc3S2(=O)=O)cc1 was read as BasE inh -0.5 and LANA-nucl inh 1.1.
`Cc1cccc(C(=O)Nc2cc(C(F)(F)F)ccc2-n2cncn2)c1` gave BasE inh 3.2.
`N#CNC(N)=Nc1ccccc1` gave BasE inh 0.8 and LANA-nucl inh 0.67.
Screening O=C(NCCN1CCOCC1)c1ccco1 returned BasE inh 1.2.
Screening O=C(CCSc1nnc2sc3ccccc3n12)Nc1cccnc1 returned BasE inh 1.4.

Structural class: the entries above with fluorine (three)
Screening O=C(Cc1nc2ccccc2[nH]1)C(F)(F)F returned BasE inh -0.7 and LANA-nucl inh 0.064.
Screening COC(=O)c1c(C(F)(F)F)nc(C(F)F)c(C(=O)O)c1CC(C)C returned BasE inh -1.9 and LANA-nucl inh -0.32.
`Cc1cccc(C(=O)Nc2cc(C(F)(F)F)ccc2-n2cncn2)c1` gave BasE inh 3.2.

(cont.)
Oc1ccc(Cl)cc1C=Nc1ccc2oc(Cc3ccc(Cl)cc3)nc2c1 was read as BasE inh 2.4.
`O=C(Nc1ccccc1C(=O)O)c1ccccc1F` gave BasE inh 0.1 and LANA-nucl inh -0.58.
For CNc1nc(SCc2c(C)noc2C)nc2ccccc12 the results were BasE inh -0.6.
Cc1ccc(C(=O)O)cc1-c1ccc(/C=C2/NC(=O)N(c3ccccc3)C2=O)o1 was read as BasE inh 7.7 and LANA-nucl inh -0.15.
Screening Cc1ccccc1SCC(=O)NCCN1CCOCC1 returned BasE inh 1.1.
Screening COCCCn1c(=O)c2ccccc2c2ccccc2c1=O returned BasE inh 0.4 and LANA-nucl inh -1.3.
Screening COc1ccc(CCN2CCC(Nc3nc4ccccc4n3Cc3ccc(F)cc3)CC2)cc1 returned BasE inh -4.5&-2.8 and LANA-nucl inh -0.5&-0.51&-0.014&0.049.
N#CCc1c(C#N)c(N)nc(N2CCCCC2)c1C#N was read as BasE inh -1.4.
COc1ccc(C)c2sc(N(Cc3ccccn3)C(=O)c3ccco3)nc12 was read as BasE inh -0.3 and LANA-nucl inh 1.1.
O=S(=O)(c1ccc(NC(=S)NCc2ccco2)cc1)N1CCCc2ccccc21 was read as BasE inh 1.5 and LANA-nucl inh -0.75.
Screening Cc1nc2ccccc2c(=O)n1C returned BasE inh -1.3 and LANA-nucl inh 0.084.
Screening Cc1nn(C(C)CN)c(C)c1C (configuration not stated) returned BasE inh -4.6 and LANA-nucl inh 1.3.

Continued, starting with the last 3 of the part before.
O=S(=O)(c1ccc(NC(=S)NCc2ccco2)cc1)N1CCCc2ccccc21 was read as BasE inh 1.5 and LANA-nucl inh -0.75.
Screening Cc1nc2ccccc2c(=O)n1C returned BasE inh -1.3 and LANA-nucl inh 0.084.
Screening Cc1nn(C(C)CN)c(C)c1C (configuration not stated) returned BasE inh -4.6 and LANA-nucl inh 1.3.
Screening CCC(C)(CC(=O)O)CC(=O)Nc1cc(OC)c(Cl)cc1OC (configuration not stated) returned BasE inh 0.4.
Screening O=C1c2ccccc2C(=O)N1CN(C(=O)C(F)(F)F)c1ccc(Cl)cc1 returned BasE inh 1.9.
For O=c1cc(CN2CCN(Cc3ccccc3)CC2)nc2sccn12 the results were BasE inh -0.9 and LANA-nucl inh 0.76.
CNC(=O)COC(=O)c1oc2ccccc2c1C was read as BasE inh 1.2.
For CCOC(=O)c1sc(SCc2ccccc2)c2c1-c1sccc1N(C)S2(=O)=O the results were BasE inh 2.0.
For O=C1CCc2cc(C3=CSC4=NCCCN34)ccc2N1 the results were BasE inh -2.7 and LANA-nucl inh -0.016.
Screening O=C(N/N=C/c1cccs1)C1CCN(S(=O)(=O)c2cccs2)CC1 returned BasE inh 1.0.
For N#CCSc1nnc(-c2ncc(C(F)(F)F)cc2Cl)n1-c1ccc(Cl)cc1 the results were BasE inh -1.6.
For Cn1cc(C(=O)N2CCCCC2)c(=O)c2cc(S(=O)(=O)N3CCCC3)ccc21 the results were BasE inh 3.4 and LANA-nucl inh 0.52.
For CCOC(=O)c1c(C)noc1C the results were BasE inh 1.4.
Screening CC(C)n1nnnc1SCC(=O)NCc1ccco1 returned BasE inh -1.2 and LANA-nucl inh 0.026.
Screening Cc1cccc(/N=c2\scc(-c3ccco3)n2-c2ccccc2)n1 returned BasE inh 1.5 and LANA-nucl inh 0.023.
`NC(=O)N/N=C/c1ccc(OC(F)F)cc1` gave BasE inh 1.8.
CC1CCC(NC(=O)c2ccc3c(=O)[nH][nH]c(=O)c3c2)CC1 (configuration not stated) was read as BasE inh -0.4.
For Cc1ccc2nc(C)cc(C(=O)O)c2c1 the results were BasE inh -0.6 and LANA-nucl inh -0.21.
Screening CCN1CCS/C1=C\C=C\C1=[N+](CC)CCS1 returned BasE inh -0.9.
Screening COc1ccc(CC(=O)OCC(=O)N2CCN(S(=O)(=O)c3ccc(C)cc3)CC2)cc1 returned BasE inh 2.3.
Cc1cccc(S(=O)(=O)N/N=c2\sc3ccccc3n2C)c1 was read as BasE inh -2.5.
`O=C(NC1=NCCS1)C1CCN(S(=O)(=O)c2ccc(Cl)cc2)CC1` gave BasE inh 4.2.
CC[N+](C)(CC)Cc1cc2ccccc2c2c1COC2 was read as BasE inh -2.4.
COCC(C)NS(=O)(=O)c1ccccc1 (configuration not stated) was read as BasE inh 2.0.
Screening CSc1nc(N)n2nc(-c3cccs3)cc2n1 returned BasE inh -0.9 and LANA-nucl inh 0.3.
`Cn1c(C(=O)N2CCc3ccccc32)cc2sccc21` gave BasE inh 0.3 and LANA-nucl inh -2.
For COc1ccc(CC(=O)Nc2ccc(-c3nnc(-c4ccc(C)cc4)o3)cc2)cc1 the results were BasE inh -1.8 and LANA-nucl inh 1.1.
c1ccc(Cn2nnnc2CN2CCCC2)cc1 was read as BasE inh 2.2 and LANA-nucl inh 0.18.
For Cc1cc2n(n1)c1cc(C)nn1c1cc(C)nn21 the results were BasE inh 0.3 and LANA-nucl inh 0.3.
O=C1O[C@H](C(O)CO)C(O)=C1O (some centres not stated) was read as BasE inh -2.1 and LANA-nucl inh 0.17&-0.43.
`O=C1CNC(=S)N1Cc1cccs1` gave BasE inh -4.6 and LANA-nucl inh 0.16.
CN1CCN(Cc2c(O)ccc3cc(-c4nc5ccccc5[nH]4)c(=O)oc23)CC1 was read as BasE inh 12.
Screening CN(c1ccccc1)S(=O)(=O)c1ccc(C(=O)c2sc(N3CCOCC3)nc2-c2cccs2)cc1 returned BasE inh -11.
For Clc1ccc(C2Oc3ccccc3CN2Cc2ccco2)cc1 (configuration not stated) the results were BasE inh -0.7.
Screening CCc1cc2c(=O)n(-c3ccccc3)c(SCC(=O)c3cccs3)nc2s1 returned BasE inh -1.5 and LANA-nucl inh -0.16.
CCn1c(SC(C)C(=O)Nc2ccnn2C(C)C)nc2sc(C)c(C)c2c1=O (configuration not stated) was read as BasE inh 0.8.
For COc1ccc2c(c1)c(C(=O)O)c(C)n2CCc1ccc(OC)c(OC)c1 the results were BasE inh -0.6.
`C=CCN1C(=O)C(O)(CC(=O)c2ccccc2)c2ccccc21` (configuration not stated) gave BasE inh -1.4.
`COc1ccc(-c2oc3ncn(CCCn4ccnc4)c(=N)c3c2-c2ccc(OC)cc2)cc1` gave BasE inh -2.9.

7 compounds drawn at random from the list so far:
O=C1O[C@H](C(O)CO)C(O)=C1O (some centres not stated) was read as BasE inh -2.1 and LANA-nucl inh 0.17&-0.43.
`C=CCN1C(=O)C(O)(CC(=O)c2ccccc2)c2ccccc21` (configuration not stated) gave BasE inh -1.4.
For Cc1cc2n(n1)c1cc(C)nn1c1cc(C)nn21 the results were BasE inh 0.3 and LANA-nucl inh 0.3.
Screening CN(c1ccccc1)S(=O)(=O)c1ccc(C(=O)c2sc(N3CCOCC3)nc2-c2cccs2)cc1 returned BasE inh -11.
c1ccc(Cn2nnnc2CN2CCCC2)cc1 was read as BasE inh 2.2 and LANA-nucl inh 0.18.
Screening CCc1cc2c(=O)n(-c3ccccc3)c(SCC(=O)c3cccs3)nc2s1 returned BasE inh -1.5 and LANA-nucl inh -0.16.
For Clc1ccc(C2Oc3ccccc3CN2Cc2ccco2)cc1 (configuration not stated) the results were BasE inh -0.7.

Going on with the list:
`Cc1cc(=O)[nH]c(NC(N)=NCc2ccccc2)n1` gave BasE inh 0.2 and LANA-nucl inh 1.7.
For CNc1cc(=O)n(C)c(=O)n1C the results were BasE inh -1.4.
For O=C1c2ccccc2C(=O)N1CSc1n[nH]c(-c2ccccc2Br)n1 the results were BasE inh 1.0.
`Cc1cc(-c2csc(NC(=O)C3CC4C=CC3C4)n2)c(C)n1Cc1ccco1` (configuration not stated) gave BasE inh 0.7.
Screening Cc1noc(C)c1CCNC(=O)c1cnc(N2CCOCC2)nc1 returned BasE inh 0.5 and LANA-nucl inh 0.89.
Screening Cc1cc(-c2nc(-c3ccnn3C(=O)Nc3cccc(Cl)c3)cs2)no1 returned BasE inh -6.2.
COC(=O)c1noc(C(=O)OC)c1O was read as BasE inh 3.1.
`Cc1ccccc1OC(=O)OCC(C)C` gave BasE inh 5.1 and LANA-nucl inh 0.59.
For Cc1ccc(S(=O)(=O)N=C2C=CC(=NS(=O)(=O)c3ccc(C)cc3)C=C2)cc1 the results were BasE inh -2.8.
`CC1CCN(c2nc3c(c(=O)[nH]2)CCNC3)CC1` gave BasE inh 0.7 and LANA-nucl inh 0.059.
For CCN1C(=O)C2C(c3ccccc3O)NC(Cc3c[nH]c4ccccc34)(C(=O)O)C2C1=O (configuration not stated) the results were BasE inh -2.9 and LANA-nucl inh 0.67.
`Cc1ccc(S(=O)(=O)N2CCC(C(=O)O)CC2)s1` gave BasE inh 0.1.
For O=C(O)c1ccc(NNC(=S)NC2CC2)cc1 the results were BasE inh -3.2.
For CCc1sc(C(=O)Nc2nc(-c3ccccn3)cs2)cc1C the results were BasE inh 0.7.
Screening Clc1ccc2oc(-c3ccccc3)cc(=NCCCN3CCOCC3)c2c1 returned BasE inh 1.4.
Screening COc1ccc(NC(C)=O)cc1NC(=O)CN1CCCN(S(=O)(=O)c2ccc(Br)cc2)CC1 returned BasE inh 1.2 and LANA-nucl inh -0.15.
For COC(=O)C(C)Oc1ccc2oc(=O)cc(-c3cc4ccccc4o3)c2c1 (configuration not stated) the results were BasE inh 0.8 and LANA-nucl inh 0.1.
For CCO/C=C1/C(=O)N(Cc2ccc(OC)cc2)C(=O)c2ccccc21 the results were BasE inh -1.2.
For O=C(CS(=O)(=O)c1ccccc1)Nc1ccc(S(=O)(=O)N2CCCCC2)cc1 the results were BasE inh 1.5 and LANA-nucl inh -0.86.
For O=C(/C=C/c1ccco1)Nc1ccc(-c2cc3ccccc3oc2=O)cc1 the results were BasE inh -0.4 and LANA-nucl inh 1.1.
Screening O=C(Cc1ccc(Cl)cc1)OC1CCOC1=O (configuration not stated) returned BasE inh -0.4.
Screening CCN(CC)C(=O)CSc1nc2ccccc2c(=O)[nH]1 returned BasE inh 1.6.
For CCOc1ccc2nc(SCC(=O)NC(=O)CN3CCCC3=O)sc2c1 the results were BasE inh -1.7.
Screening Nc1ccc(N2CCOCC2)c(Br)c1 returned LANA-nucl inh 0.73.
